# Vaccinia Venus: inhibitors of vaccinia virus (Venus reporter); Vaccinia virus Venus reporter expression, fluorescence; Potency, µM (highest dose often 36.5 µM), without a hit: top-dose activity change, negative = inhibition, hits mostly inhibitors; 330,000 compounds, 0.46% hits; active means well fitted inhibition curve with a large enough effect; inconclusive means small, poorly fitted or top-dose-only effect; inactive means no such curve, though single readings can be large or run the other way; tested in A549 cells; also: nearly all actives have a fitted effect of over 30% in size; inactives centre near -10
# VACV mCherry inh: vaccinia inhibition (mCherry reporter). Vaccinia virus mCherry reporter infection, fluorescence; about a quarter of the inactives have no number. Potency, µM (top dose mostly 36.5 µM), inactives show at the highest dose activity change, negative = inhibition, usual class: inhibitors. 310,000 compounds, 0.63% hits. AID 720579; active = well fitted inhibition curve with a large enough effect; inconclusive = small, poorly fitted or top-dose-only effect; inactive = no such curve, though single readings can be large or run the other way; tested in A549 cells; also: nearly all actives have a fitted effect of over 35% in size; inactives centre near -10
# Active calls of the source: *; i = inactive; ? = inconclusive; / = not tested or not shown; & = joins results of further samples; [ ] = another dose, or the depositor's remark. % is scaled to controls: 0 for no effect and ±100 for the full control effect; potency is read from the fitted curve at half-maximal effect.
# Every second line gives: Vaccinia Venus	VACV mCherry inh
- CC1CCC(NC(=O)C(NS(=O)(=O)c2ccc(Br)cc2)C(C)C)CC1 (configuration not stated)
 : -23%	-7%
- Cn1c(NCc2cccs2)nc2ccccc21
 : -7%	-18%
- CCc1cc2ccc(C)cc2nc1SCC(=O)Nc1c[nH]c(=O)[nH]c1=O
 : -10%	-8%
- O=C(OCc1cn([C@@H]2CN(Cc3cccs3)[C@@H](c3ccccc3)C[C@H]2O)nn1)c1ccccc1
 : -2%	i
- COc1cccc(Nc2nc3ccccc3n2C(C)C)c1
 : 6%	i
- CC1CCCN(c2ccc(/C=C(\C#N)c3nn(-c4ccccc4)c(N)c3C#N)cc2[N+](=O)[O-])C1 (configuration not stated)
 : ?	-18%
- O=C(COc1cc2oc(=O)cc(-c3ccccc3)c2cc1Cl)NCc1ccccn1
 : -16%	-10%
- Cc1ccc(-c2ccc(/C=N/n3cnnc3)o2)cc1
 : -14%	-14%
- O=C(COC(=O)C1(c2ccc(Cl)cc2)CCCC1)N1CCc2ccccc21
 : -11%	-8%
- Cc1c(NC(=O)/C(C#N)=C\c2cccs2)c(=O)n(-c2ccccc2)n1C
 : -4%	-6%

# Whole records from above.
# Entry for Cn1c(NCc2cccs2)nc2ccccc21 : Vaccinia Venus: -7%; VACV mCherry inh: -18%
# Entry for O=C(COC(=O)C1(c2ccc(Cl)cc2)CCCC1)N1CCc2ccccc21 : Vaccinia Venus: -11%; VACV mCherry inh: -8%
# Entry for Cc1ccc(-c2ccc(/C=N/n3cnnc3)o2)cc1 : Vaccinia Venus: -14%; VACV mCherry inh: -14%

# Retrieved one by one from the entries so far (two):
# Every second line gives: Vaccinia Venus	VACV mCherry inh
- Cc1c(NC(=O)/C(C#N)=C\c2cccs2)c(=O)n(-c2ccccc2)n1C
 : -4%	-6%
- Cc1ccc(-c2ccc(/C=N/n3cnnc3)o2)cc1
 : -14%	-14%

# (listing goes on)
# Every second line gives: Vaccinia Venus	VACV mCherry inh
- O=C1c2ccccc2NC(c2cccc([N+](=O)[O-])c2)N1CCc1ccccc1 (configuration not stated)
 : -8%	?
- Cc1ccc(C(=O)OCC(=O)c2c(N)n(C)c(=O)n(C)c2=O)cc1S(=O)(=O)N1CCCCC1
 : -4%	-14%
- CN(Cc1nc2ccccc2[nH]1)C(=O)C1CCC(=O)N(C2CCCC2)C1 (configuration not stated)
 : -10%	i
- O=C(Cn1cnc2cc([N+](=O)[O-])ccc2c1=O)NCc1ccc(Cl)cc1
 : 0%	?
- COc1ccc(-c2noc(CN(C(=O)c3ccoc3C)C(C)C)n2)cc1
 : -4%	-15%
- CC(C)CC1(C)CNC(=O)NC1
 : -8%	i
- CCCNc1nc(C)cc(-c2cc(C(=O)NC3CCCC3)on2)n1
 : ?	i
- Cc1ccc(S(=O)(=O)NC2CCCC(C(=O)O)C2)cc1 (configuration not stated)
 : -10%	i
- CCN(CC)c1ccc(/C=N/Nc2cccc(C)c2)c(O)c1
 : 0%	-11%
- C=CCOc1ccc(CNCc2cccnc2)cc1OCC
 : -11%	i
- Cc1ccc(N(C)S(=O)(=O)c2ccc3[nH]cc(C(=O)O)c(=O)c3c2)cc1C
 : -2%	3%
- CC(=O)N1CCOc2ccc(S(=O)(=O)N3CCC(C(=O)NCc4ccc(Cl)cc4)CC3)cc21
 : -13%	-14%
- Cc1ccccc1-c1nc(CS(=O)(=O)CC(=O)Nc2cc(F)ccc2F)c(C)o1
 : -6%	30%
- CC1(C)CC(C(=O)N2CCOc3ccc(CN4CCN(Cc5ccccn5)CC4)cc3C2)CCO1 (configuration not stated)
 : -7%	-12%
- O=C(CNc1ccccc1)N/N=C/c1ccc2c(c1)OCCO2
 : -11%	-20%
- CC(=O)c1ccc(N2CCN(C(=O)C3CCN(S(=O)(=O)c4c(C)noc4/C=C/c4ccccc4F)CC3)CC2)cc1
 : -3%[7.34 µM]	-7%[7.34 µM]
- Brc1ccc2ncc3ccccc3c2c1
 : -24%	-30%
- COc1ccc(-c2cc(C(F)(F)F)nc(SCC(=O)N3CCC(C)CC3)n2)cc1
 : -3%	-4%
- COCCn1c(SCC(=O)NCc2ccco2)nnc1-c1c[nH]c2ccccc12
 : 4%	13%
- Cc1c(Cl)cccc1NC(=O)c1cc(C2CC2)on1
 : -11%	4%
- COc1ccc(C(=O)Nc2ccc(Cl)c(S(=O)(=O)Nc3ccccc3OC)c2)cc1
 : ?	?
- Cc1ccc(NCCC(=O)c2cccs2)cc1Cl
 : -10%	-2%
- COc1ccc(CCNC(=O)c2cc([C@@H](NC(=O)OC(C)(C)C)C(C)C)sc2N)cc1OC
 : -24%	?
- COc1ccc2c(c1)nc(SCC(C)O)n2C (configuration not stated)
 : -8%	-10%
- CCOc1ccccc1N1CCN(CC(O)COCc2cccs2)CC1 (configuration not stated)
 : -7%	?
- COc1ccc2c(C)cc3nnnn3c2c1
 : -8%	-1%
- COc1cccc(OC)c1OCCNCC1CSc2ccccc2O1 (configuration not stated)
 : -8%	i
- O=C(COC(=O)/C=C/c1ccc2c(c1)OCO2)Nc1ccc(S(=O)(=O)N2CCCC2)cc1
 : -17%	-20%
- O/N=C1\CCCc2ccc(Cl)cc21
 : -8%	-12%
- NC(=O)CSc1nnc2ccc(-c3ccc(Cl)cc3)nn12
 : 0%	i
- CCCCN(CCCC)c1nc(OC)nc(-n2nnc(C(C)=O)c2C)n1
 : ?	/
- CC(=O)c1ccc(N=Cc2c(O)n(-c3cc(Cl)ccc3N3CCOCC3)c(=O)c3ccccc23)cc1
 : -22%	/
- Cc1cc([N+](=O)[O-])nn1CC(=O)N(C)C1CCCCC1
 : -11%	6%
- CN(C)C(CNC(=O)c1coc2ccccc2c1=O)c1ccccc1 (configuration not stated)
 : -8%	?
- CCN(CC)S(=O)(=O)c1ccc(/C=C/C(=O)OCC(=O)NC(=O)C2COc3ccccc3O2)cc1 (configuration not stated)
 : -10%	-20%
- Cn1c(=O)[nH]c(=O)c2c1nc(CN1CCN(c3ccccc3F)CC1)n2Cc1ccc(F)cc1
 : -9%	-22%
- COc1ccc(C(C)=O)cc1COC(=O)CNC(=O)c1ccc(Cl)cc1
 : -3%	i
- COCCCNc1nc2c(-c3cccc(C)c3)nnn2c2ccccc12
 : -9%	i
- CN(C(=O)CSc1nnc(CN2CCCC2)n1Cc1ccccc1)c1ccccc1
 : -1%	-5%
- O=C(COC(=O)COc1ccccc1F)Nc1ccc(Cl)cn1
 : -11%	-4%
- O=C(CSc1nnc(-c2ccc(F)cc2)o1)N1CCCC1
 : -8%	-1%
- COC(=O)N1CCCc2cc(C)ccc21
 : -14%	i
- O=C(CN(C(=O)CNC(=O)c1cccs1)c1ccccc1F)NC1CCCC1
 : -7%	8%
- CCOc1ccc(-c2cn3ccccc3n2)cc1[N+](=O)[O-]
 : -19%	-19%
- Cc1ccc(S(=O)(=O)N2CCCCC2)cc1C(=O)N(CCc1ccccc1)Cc1ccccc1
 : -25%	-10%
- CC(C)CNC(=O)C1CCN(Cc2ccc(OCc3ccccc3)cc2)CC1
 : -19%	-20%
- S=c1[nH]c2cnc(Cl)nc2[nH]1
 : -14%	-14%
- COc1cc(/C=C/C(=O)c2cccc([N+](=O)[O-])c2)cc(OC)c1OC
 : -21%	i
- O=[N+]([O-])c1ccc(O)c(Nc2c([N+](=O)[O-])ccc3nonc23)c1
 : -18%	?
- COc1ccc(CN2C(=O)CN=C2Nc2cccc(C)c2C)cc1
 : -13%	-10%

# More results follow:
# Every second line gives: Vaccinia Venus	VACV mCherry inh
- CC(=O)c1ccc(NS(=O)(=O)c2ccc([N+](=O)[O-])cc2)cc1
 : 2%	i
- C[C@H]1CN=C(N(C)C)N1CCc1ccc(F)cc1
 : -8%	?
- COc1ccc(S(=O)(=O)N2CCC(C(=O)NCCCc3ccccc3)CC2)cc1
 : -14%	i
- CCC(=NCc1ccco1)c1c(O)n(-c2ccc(OC)cc2)c(=O)[nH]c1=O
 : -12%	-18%
- COc1ccccc1C(=O)NNC(=O)c1ccc(C)cc1
 : -9%	-14%
- O=C(CCCc1nc(-c2ccco2)no1)Nc1ccccc1[N+](=O)[O-]
 : -5%[7.34 µM]	-5%[7.34 µM]
- Cc1ccc([C@H]2N[C@]3(CCCN(Cc4cccn4C)C3=O)[C@H]3C(=O)N(C)C(=O)[C@@H]23)cc1
 : -25%	-8%
- Cc1ccccc1Nc1nc(Cl)nc(NC(C)(C)C)n1
 : -20%	-21%
- CCn1c(=O)n(CC)c2cc(N3CCCC3)c(NC(=O)c3cccc(Cl)c3)cc21
 : 4%[7.34 µM]	?
- CC(C)c1nc(SCC(=O)Nc2nc3c(s2)CCCC3)c2ccccc2n1
 : 6%	-12%
- COc1ccc(N(Cc2ccccc2)N=O)cc1
 : -17%	-5%
- O=S(=O)(c1cnccc1N1CCN(CCO)CC1)N1CCCCC1
 : -4%	-9%
- Cc1ccc(S(=O)(=O)N2C[C@H]3[C@H]4C(=O)N(c5ccccc5)C(=O)[C@H]4C[C@H](OC(=O)Nc4c(C)noc4C)[C@@]3(O)C2)cc1
 : -2%	i
- O=C(C1=C(O)C(=O)N(Cc2ccco2)C1c1cccnc1)c1cc2ccccc2o1 (configuration not stated)
 : 0%	/
- O=C(c1ccccc1)c1ccc2nc(-c3ccco3)c(-c3ccco3)nc2c1
 : -5%	i
- Cc1nn(S(=O)(=O)N2CCCCC2)c(C)c1Br
 : -1%	-11%
- CN(CC(=O)Nc1ccccc1Cl)S(=O)(=O)c1ccc(C(=O)N2CCOCC2)s1
 : -2%	-9%
- CCOc1ccccc1NC(=O)CN1Cc2ccccc2C1=O
 : -8%	-11%
- CN(NC1OC(=O)c2ccccc21)c1ncc(Cl)cc1C(F)(F)F (configuration not stated)
 : -8%	i
- CC#CCCC(=O)N1C=Cc2ccccc2C1C#N (configuration not stated)
 : -16%	i
- COc1ccc(C(=O)C2CCN(C(=O)Nc3ccc(C)cc3)CC2)cc1
 : -12%	-24%
- COc1ccccc1C(=O)NNC(=O)C1CC=CCC1 (configuration not stated)
 : -9%	-11%
- CC(C)(C)c1nnc2sc(SCC(=O)c3ccc(Cl)cc3)nn2c1=O
 : -13%	-26%
- CSc1ccccc1NC(=O)c1cccc(S(=O)(=O)N2CCN(C)CC2)c1
 : -13%	i
- N#Cc1c(NCCN)nc(NCc2ccccc2)c2c1CCN(Cc1ccccc1)C2
 : -21%	-8%
- CCOC(=O)c1ccc(N2C(=O)c3n[nH]c(C)c3C2c2ccc(OCC)cc2)cc1 (configuration not stated)
 : -11%	-21%
- CCOC(=O)N1CCN(C(=O)c2cc3c(=O)n4ccccc4nc3s2)CC1
 : -6%	-18%
- CN(CC(=O)NCCc1ccccc1)S(=O)(=O)c1ccccc1
 : -12%	-12%
- O=[N+]([O-])c1ccc2nc(-c3ccccc3)oc2c1
 : -29%	-30%
- CN(CC(=O)Nc1ccc2c(c1)OCCO2)S(=O)(=O)c1ccc(Br)s1
 : -29%	/
- C[C@H](NC(=O)c1cc2cc(Cl)ccc2n1C)C(=O)N1CCC[C@H]1C(=O)O
 : -7%	-3%
- Cc1ccc(C(=S)N2CCCCCC2)cc1
 : -5%	i
- O=S(=O)(NCC(c1ccco1)N1CCN(c2ccccc2)CC1)c1ccc(F)cc1 (configuration not stated)
 : -18%	-17%
- Cc1cc(C)n2ncc(C(=O)O)c2n1
 : -8%	-12%
- Cc1cc(NC(=O)CSc2nnc(-c3ccccc3)c(-c3ccccc3)n2)no1
 : -20%	-22%
- CCN(CC)S(=O)(=O)c1ccc(OC)c(NC(=O)CCS(=O)(=O)Cc2ccccc2)c1
 : -13%	-19%
- CC(C)c1ccc(OC(=O)c2cc(-c3ccc4c(c3)OCCO4)on2)cc1
 : -4%	-4%
- Cc1nnc(SCC(=O)Nc2ccccc2)[nH]c1=O
 : -15%	-12%
- O=C(Nc1cccc(C(=O)N2CCCC2)c1)C1CCCCC1
 : ?	-14%
- O=C(Nc1ccc2c(c1)CCC2)Nc1ccc2c(c1)OCO2
 : 0%	i
- CCOC(=O)c1ccc(S(=O)(=O)N2CCC(C(=O)NCC3COc4ccccc4O3)CC2)cc1 (configuration not stated)
 : -13%	-7%
- O=C(Cc1cccs1)NC1CC(=O)N(c2ccccc2)C1 (configuration not stated)
 : -5%[7.34 µM]	0%[7.34 µM]
- O=C(CN(Cc1ccccc1)C(=O)c1csnn1)NCc1ccccc1
 : -1%	-7%
- COc1ccc(OC)c2c(/C=C/c3c[nH]c4ccccc34)ccnc12
 : -13%	?
- CCOc1ccccc1NC(=O)C1CCCN(S(=O)(=O)c2ccc3c(c2)CCCN3C(C)=O)C1 (configuration not stated)
 : -16%&-14%	-14%
- CCc1ccc(NC(=O)CSc2nnc(-c3ccccc3)n2C)cc1
 : -16%	-14%
- CC(C)(C)OC(=O)N1CCCC(C(=O)CC#N)C1 (configuration not stated)
 : -5%	-20%
- COc1ccccc1N(Cc1ccccc1)S(=O)(=O)c1cccc(C(=O)NC2CC(C)(C)NC(C)(C)C2)c1
 : ?	?
- Cc1cc(C)c(S(=O)(=O)Nc2ccc(Cl)cn2)c(C)c1
 : -15%	-6%
- O=C(NNC1=NS(=O)(=O)c2ccccc21)c1ccc(Cl)cc1
 : -11%	i

# Carrying on.
# Every second line gives: Vaccinia Venus	VACV mCherry inh
- O=C(Nc1ncc(Cc2cccc(C(F)(F)F)c2)s1)C1CCCO1 (configuration not stated)
 : -2%[7.34 µM]	0%[7.34 µM]
- O=C(Nc1cccc(C(F)(F)F)c1)c1ccc2sc([C@H]3C[C@H](O)[C@@H](CO)O3)nc2c1
 : ?	?
- CC1=C(C(=O)N(C(C)C)C(C)C)CC(CC(=O)NC(c2ccccc2)c2ccccc2)C(=O)N1Cc1ccc(F)cc1 (configuration not stated)
 : -12%	i
- N#CC1=C(N)Oc2c(c(=O)oc3ccccc23)C1c1ccncc1 (configuration not stated)
 : 1%	-8%
